Screens deposited in PubChem BioAssay by ICCB-Longwood Screening Facility, Harvard Medical School.
fixLJ activator – B. multivorans fixK reporter activation; AID 1918990; z-score (concentration not given with the values); B. multivorans fixK-promoter GFP reporter, 18 h; active compounds read high; 29,000 tested, 0.3% active;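 active = replicate mean overnight rise in green fluorescent reporter signal, 3 or more SD over negative controls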;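 note: score is relative to vehicle wells of the plate; 300 nL library stock went into each well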
Numbers without * were called inactive; & = joins results of further samples. Not all compounds are listed; count on the stated rates, not on these rows.

| molecule | fixLJ activator |
| --- | --- |
| COc1ccc(-c2nc3c(c(SCC(=O)N(C)c4ccccc4)n2)Cc2cc(C)ccc2O3)cc1 | -0.7 |
| COc1ccc(N2CCN(C(=O)C(CC(C)C)NS(=O)(=O)c3ccc4nc(C)sc4c3)CC2)cc1 (stereo not drawn) | -1.6 |
| COC(=O)c1ccccc1NC(=O)Cn1ncc2c(C)n(Cc3ccc(F)cc3)c(C)c2c1=O | -0.95 |
| Cc1ccc(CN2CCSc3ccc(C(=O)N4CCN(c5ccccc5)CC4)cc32)cc1 | -0.07 |
| CN1CCN(CCCN2c3ccccc3Sc3ccc(C(F)(F)F)cc32)CC1 | -1&-1.2 |
| CCC1CCCCN1C(=O)CSc1nc(-c2ccc(OC)cc2)cc(C(F)(F)F)n1 (stereo not drawn) | 0.06 |
| COc1cc(-c2nc(Cn3nnc(C(=O)Nc4ccc(C)cc4C)c3C)c(C)o2)cc(OC)c1OC | -0.03 |
| CCC(=O)Nc1ccc(-c2nnc3c4ccccc4c(C)nn23)cc1 | -1 |
| CCOc1ccc(CNC(=O)CSc2c3c(nc4cc(Cl)ccc24)CCCC3)cc1 | 0.05 |
| CC(=O)c1ccc(S(=O)(=O)N2CCC(Oc3ccc(-n4cnnn4)cc3)CC2)cc1 | -0.98 |
| Cc1[nH]c2ccccc2c1C1(O)C(=O)Nc2ccc(Cl)cc21 (stereo not drawn) | -2.4 |
| CCCCc1ccc(NC(=O)Cn2nnc3sc4c(c3c2=O)CCC(C)C4)cc1 (stereo not drawn) | -3.5 |
| CC(C)NC[C@H](O)COc1cccc2ccccc12 | -0.85&1.2 |
| CC(C)Cc1cc(C(=O)NCCCN2CCN(C)CC2)n(C)n1 | 0 |
| CC(=O)N1CCc2cc(Br)cc(S(=O)(=O)CCC(=O)N3CCN(c4ccccc4)CC3)c21 | -0.88 |
| CCCCC(=O)O[C@H]1CCC2C3CCc4cc(O)ccc4C3CC[C@@]21C (stereo partly drawn) | -2.6 |
| CCCCCNC(=O)C1CCC(Cn2c(=O)c3sccc3n(CC(=O)NCc3cccc(OC)c3OC)c2=O)CC1 (stereo not drawn) | -2.3 |
| CCOc1ccccc1CN1C(=O)c2ccccc2C1C(=O)NC1CCCCCC1 (stereo not drawn) | -0.47 |
| CO[C@H]1/C=C/O[C@@]2(C)Oc3c(C)c(O)c4c(O)c(c(C=NN5CCN(C)CC5)c(O)c4c3C2=O)NC(=O)/C(C)=C\C=C\C(C)[C@H](O)[C@@H](C)[C@@H](O)[C@@H](C)[C@@H](OC(C)=O)[C@@H]1C (stereo partly drawn) | -2.9 |
| CC(NC(=O)N1CCC2(CCCO2)CC1)c1ccc(S(C)(=O)=O)cc1 (stereo not drawn) | 0.38 |
| CCc1ccc(CNC(=O)c2ccc(NC(=O)N3CC(C)Sc4ccccc43)cc2)cc1 (stereo not drawn) | 0.61 |
| CCN1CC(NC(=O)N(Cc2ccccn2)Cc2sccc2C)CC1=O (stereo not drawn) | -0.49 |
| CNC(=O)c1c[nH]c2ccc(S(=O)(=O)Nc3cccc(Cl)c3C)cc2c1=O | -0.73 |
| COc1c(C)c2c(c(O)c1C/C=C(\C)CCC(=O)OCCN1CCOCC1)C(=O)OC2 | 0.46 |
| CC(C)CN(Cc1ccncc1)C(=O)c1cc2n(n1)CC(O)CNC2=O (stereo not drawn) | 0.49 |
| Cc1ccc(NC(=O)CCn2nc(-c3ccccc3)c3ccccc3c2=O)c(C)c1 | -3.4 |
| COc1cccc(C2CC(=O)Nc3c2ccc(C)c3C)c1OC (stereo not drawn) | 0.62 |
| Cc1ccccc1Nc1nnc(-c2ccc(C)c(S(=O)(=O)N3CCN(C)CC3)c2)c2ccccc12 | -0.67 |
| Cc1cc(C(F)(F)F)nc(CNC(=O)C(O)CC(C)C)n1 (stereo not drawn) | -0.16 |
| CCn1c(=O)cc(SCC(=O)N2CCN(c3ccccc3F)CC2)c2ccccc21 | -0.55 |
| Cc1ccc(C(=O)N(C)Cc2cn[nH]c2-c2ccc(F)cc2)c(=O)[nH]1 | 0.2 |
| CN(C)CCCN(C)C(=O)CCc1nc2ccc(F)cc2[nH]1 | -1.5 |
| CCc1cccc(NC(=O)C(Cc2ccccc2)NS(=O)(=O)c2cccs2)c1 (stereo not drawn) | -1.6 |
| COc1cc(C)cc2oc(=O)c(CC(=O)NCc3cccc(Cl)c3)c(C)c12 | -2.5 |
| Cc1ccc(-n2nc3ccc(NC(=O)COc4ccccc4C)cc3n2)cc1 | 0.32 |
| Cc1nn(-c2ccccc2)c(OC(=O)c2ccc(F)cc2)c1S(=O)(=O)c1ccccc1 | -0.63 |
| Cc1cc(C)n(Cc2cc(C(=O)N(C)Cc3cnc4ccccc4n3)n[nH]2)n1 | 0.68 |
| CC(C)c1nc(CCNC(=O)C(C)c2n[nH]c(=O)c3ccccc23)cs1 (stereo not drawn) | -0.31 |
| O=S(=O)(NC(c1cccs1)C1CC(O)C1)c1ccc(Cl)s1 (stereo not drawn) | 0.57 |
| CCNC(=O)N1CCC(NC(=O)c2ccc(-c3cnc(N)cn3)cc2)CC1 | -0.73 |
| CSc1ncc(CN2CC(c3cccc(O)c3)C3C2C2CCN3CC2)cn1 (stereo not drawn) | 0.69 |
| CCc1ccc(NC(=O)c2nn(-c3ccc(OC)cc3)c(=O)c3c2c2ccccc2n3C)cc1 | -1.7 |
| COc1ccc(C(=O)c2cn(CC(=O)Nc3ccc4c(c3)OCO4)c3ccc(OC)cc3c2=O)cc1 | -0.96 |
| Cc1cccc(-c2nc3ccccc3n3c(-c4ccccc4)c4c(=O)n(C)c(=O)n(C)c4c23)c1 | -0.84 |
| CCOC(=O)CC(NC(=O)Cn1nnc(-c2ccc(Cl)cc2)n1)c1ccc(OC)cc1 (stereo not drawn) | -2.7 |

2 consecutive compounds already listed, quoted:
| molecule | fixLJ activator |
| --- | --- |
| CC(C)c1nc(CCNC(=O)C(C)c2n[nH]c(=O)c3ccccc23)cs1 (stereo not drawn) | -0.31 |
| O=S(=O)(NC(c1cccs1)C1CC(O)C1)c1ccc(Cl)s1 (stereo not drawn) | 0.57 |

Continued:
| molecule | fixLJ activator |
| --- | --- |
| Cc1cccc(-c2nnc(SCC(=O)N3CCCc4ccccc43)o2)c1 | -0.35 |
| CN/C(=C\[N+](=O)[O-])NCCSCc1ccc(CN(C)C)o1 | -1.3 |
| CN(CC(=O)NCC1CCCO1)Cc1cccc(-c2nn[nH]n2)c1 (stereo not drawn) | -0.3 |
| COc1ccc(-c2cc(C(F)(F)F)nc(NCCc3ccccc3)n2)cc1OC | -0.55 |
| COc1ccc(NS(=O)(=O)c2ccc3c(c2)CCN3C(=O)C2CC2)cc1OC | -2.1 |
| Cc1ccc(C(=O)N2CC(O)C(CS(=O)(=O)N(C)C)C2)cc1C (stereo not drawn) | -0.65 |
| Cc1ccc(S(=O)(=O)N2CCOCC2)cc1C(=O)Nc1ccccc1C(=O)O | -0.65 |
| COc1ccc2c(c1)cc1c(=O)n(CC(=O)NCc3ccco3)nc(C)n12 | -0.32 |
| Cc1ccc2nc(-c3ccc(Cl)c(NC(=O)COc4ccc([N+](=O)[O-])cc4)c3)oc2c1 | -2.1 |
| CCC(=O)N1CCc2cc(S(=O)(=O)CCC(=O)N3CCN(c4ccc(Cl)cc4)CC3)ccc21 | -2 |
| Oc1ccc(Cl)cc1 | 1.2 |
| Cc1ccc(CNC(=O)CCCn2c(=O)c3ccccc3n(CC(=O)Nc3ccc(C)c(C)c3)c2=O)cc1 | 1 |
| CN(Cc1cn[nH]c1-c1ccc(F)cc1)CC1CCC(=O)N(C)C1 (stereo not drawn) | -0.4 |
| COCCCNC(=O)CSc1nc(-c2ccc(OC)c(OC)c2)[nH]c1-c1ccc(F)cc1 | -0.09 |
| O=C1CCC(C(=O)N2CCCN(C(=O)c3cccc4c3OCCO4)CC2)=NN1 | -0.39 |

In another format: results already given
COCCCNC(=O)CSc1nc(-c2ccc(OC)c(OC)c2)[nH]c1-c1ccc(F)cc1
  fixLJ activator: -0.09

O=C1CCC(C(=O)N2CCCN(C(=O)c3cccc4c3OCCO4)CC2)=NN1
  fixLJ activator: -0.39

(continued)
| molecule | fixLJ activator |
| --- | --- |
| CCOc1ccccc1CNC(=O)C1CCN(c2nnc(-n3c(C)ccc3C)s2)CC1 | -0.76 |
| CCOC(=O)c1ccc(NC(=O)CC2C(=O)N(c3ccc(F)cc3)C(=O)N2Cc2ccc3c(c2)OCO3)cc1 (stereo not drawn) | -1.3 |
| Cc1ccc2nc(Cl)c3cc(C(=O)N4CCCCC4)sc3c2c1 | -1.6 |
| Cc1ccn2c(Nc3ccc4c(c3)OCO4)c(-c3ccc(C)o3)nc2c1 | 0.81 |
| CCn1c(=O)c2cc(C(=O)Nc3cc(OC)c(OC)c(OC)c3)sc2c2ccccc21 | -1.5 |
| COc1ccc(Cl)cc1NS(=O)(=O)c1c(C)nc2scc(C)n2c1=O | 0.34 |
| Cc1ccc(CNC(=O)CSc2ncc(S(=O)(=O)c3ccc(Br)cc3)c(=O)[nH]2)cc1 | -0.31 |
| Cn1cc(C(NC(=O)c2ccc3nccnc3c2)C2CC(O)C2)cn1 (stereo not drawn) | -0.95 |
| O=C(CCc1nc(-c2ccccc2)no1)NCc1ccc2cc[nH]c2c1 | -3.3 |
| O=C(c1cnccn1)N1CCOc2c(O)cc(-c3nc4ccccc4s3)cc2C1 | -0.77 |
| O=C1CC[C@@]2(O)[C@H]3Cc4ccc(O)c5c4[C@@]2(CCN3CC2CC2)[C@H]1O5 | -0.49 |
| CCOc1ccc(NC(=O)c2nc(S(=O)(=O)Cc3ccccc3F)ncc2Cl)cc1 | 1.2 |
| Cc1cccnc1NCCNC(=O)[C@]12COCC1CN(C(=O)C1CC=CC1)C2 (stereo partly drawn) | -0.11 |
| O=C(Nc1cc(-c2nc3ccccc3s2)ccc1Cl)c1cc2ccccc2o1 | 0.13 |
| CC(C)NCC(O)c1cc(O)cc(O)c1 (stereo not drawn) | -1.6 |
| CC(O)c1nc2ccc(NC(=O)c3cn(-c4ccccc4)nn3)cc2[nH]1 (stereo not drawn) | -0.12 |
| CCC(C)NC(=O)CSc1c2c(nc3cc(Cl)ccc13)CCCC2 (stereo not drawn) | -1.5 |
| Cc1ccn2c(Nc3ccc4c(c3)OCCO4)c(-c3ccccc3O)nc2c1 | 0.87 |
| Cc1cccc(CNC(=O)CCCN2C(=O)COc3ccc(C)cc32)c1 | -0.13 |
| O=C(NCc1ccco1)c1ccc2c(c1)N(Cc1ccccc1F)C(=O)c1ccccc1S2=O (stereo not drawn) | -2.6 |
| CCCn1c2ccccc2c2nnc(SCC(=O)Nc3cccc(C(C)=O)c3)nc21 | -0.19 |
| CC1=C(c2ccccc2)C1C(=O)NCC1CCN(C(=O)c2cncc(O)c2)CC1 (stereo not drawn) | -0.08 |
| CCCSc1ncc(Cl)c(C(=O)N2CCN(c3ccc(OC)cc3)CC2)n1 | -2.8 |
| CN(C)CCNC(=O)c1ccc2c(=O)n3c(nc2c1)CCCCC3 | -0.65 |
| Cc1cc(O)cc(C)c1Cl | 3.1 |
| O=C(Nc1cc(-c2nc3ccccc3o2)ccc1Cl)c1cc([N+](=O)[O-])ccc1N1CCOCC1 | -2.4 |
| O=C(Nc1ccccc1C(F)(F)F)C1(S(=O)(=O)c2ccc(Cl)cc2)CC1 | -1.8 |
| Cc1cc(C)c(NC(=O)COc2ccc3c(C)cc(=O)oc3c2)c(C)c1 | -0.91 |
| CCC1CN(C(=O)c2ccn(CC)n2)CCC(=O)N1Cc1ccccc1 (stereo not drawn) | 0.35 |
| O=C(COc1ccc(F)cc1)NCC1CCN(c2ncc(Cl)cn2)CC1 | -0.99 |

Structures listed so far containing bromine:
| molecule | fixLJ activator |
| --- | --- |
| CC(=O)N1CCc2cc(Br)cc(S(=O)(=O)CCC(=O)N3CCN(c4ccccc4)CC3)c21 | -0.88 |
| Cc1ccc(CNC(=O)CSc2ncc(S(=O)(=O)c3ccc(Br)cc3)c(=O)[nH]2)cc1 | -0.31 |

Carrying on:
| molecule | fixLJ activator |
| --- | --- |
| O=C(CCCC1CCCCC1)NC1COCC1Cc1ccncc1 (stereo not drawn) | -0.87 |
| COc1ccccc1/C=C/c1nc(C#N)c(N2CCCCC2)o1 | -1.4 |
| COc1cc(NC(=O)c2nn(C)c3c2CS(=O)(=O)c2ccccc2-3)cc(OC)c1 | -1.9 |
| COc1cccc(C(=O)Nc2nc3nc(-c4ccccc4)cc(=O)n3[nH]2)c1 | -0.08 |
| COc1ccc(C2c3c(-c4ccccc4)n[nH]c3C(=O)N2c2ccc(C(=O)O)cc2)c(OC)c1 (stereo not drawn) | -0.18 |
| O=c1c2sc3ccccc3c2n(Cc2cccc(C(F)(F)F)c2)c(=O)n1Cc1ccco1 | -0.82 |
| CCOc1cccc(C(=O)NCC2CCN(c3ccc(C#N)cn3)CC2)c1 | -0.93 |
| COc1ccccc1C(=O)NC1(C(F)(F)F)C(=O)Nc2c1c(=O)[nH]c(=O)n2-c1ccccc1 (stereo not drawn) | -0.45 |
| CCCS(=O)(=O)c1nc(S(=O)(=O)c2ccc(C)cc2)c(NCc2ccccc2)s1 | 1.2 |
| CCc1ccc2oc(-c3cccc(NC(=O)c4cc5ccccc5o4)c3)nc2c1 | -1 |
| CCOc1ccc(NC(=O)c2ccc3c(SCC(=O)O)c4c(nc3c2)CCCC4)cc1 | -1.6 |
| COc1ccccc1C(=O)NCCSc1c(C)[nH]c2ccccc12 | -1 |
| CCc1ccccc1NS(=O)(=O)c1cc(Br)cc2c1N(C(=O)C1CC1)CC2 | -1.6 |
| COCCCNC(=O)c1cn(CC(C)C)c(=O)c2c1c1ccccc1n2C | -0.28 |
| Cc1cc(C)cc(OCC(=O)NC(Cc2c[nH]c3ccccc23)C(=O)O)c1 (stereo not drawn) | -3.4 |
| CNC(=O)C(C)N1CCOc2c(O)cc(-c3cccc(Cl)c3)cc2C1 (stereo not drawn) | 0.36 |
| CCN1CCC(CC(=O)N2CCc3c(nc(CC4CC4)[nH]c3=O)C2)CC1 | 0.71 |
| Cc1nc(CN2CCCN(C(=O)c3ccncc3Cl)CC2)cc(=O)[nH]1 | -3.3 |
| Cc1ccc2nc(/C(C#N)=C/c3ccccc3F)[nH]c2c1 | 0.56 |
| COc1ccc2[nH]cc(S(=O)(=O)c3ccc(C)c(C)c3)c(=O)c2c1 | -2.4 |
| CC(C)OC(=O)c1cccc(NC(=O)Cn2nnc3sc4c(c3c2=O)CCCC4)c1 | -0.92 |
| Cc1nc2ccc(S(=O)(=O)NCC(=O)Nc3ccc(F)cc3F)cc2s1 | 2.6 |
